GRP78 ERSR act = inducers of ER stress response in human glioma cells. U87-MG GRP78 promoter luciferase reporter, 16 h. Potency, µM, without a hit: at the top dose activation, usual class: activators. 420,000 compounds, 0.02% hits; further: potency means the concentration at half of the fitted maximal effect; series mostly up to about 76 µM; % of control where 0% means no effect; nearly all actives have a fitted effect of over 35% in size
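Stably transfected U87-MG glioma cells carrying a GRP78-based luciferase sensor; 16 h compound incubation. Luminescence end-point read 10 min after Bright-Glo addition at room temperature.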
POLK inh = inhibitors of human DNA polymerase kappa | Q9UBT6 | purified Pol kappa, fluorescent DNA synthesis assay, 10 min | Potency, µM (titrated, usually from 107 µM), for the others: at the top dose activity, negative = inhibition, actives largely listed as inhibitors | 400,000 compounds, 0.53% hits | AID 588579; further: potency means the concentration at half of the fitted maximal effect; on the % scale 0 is the no-effect control and ±100 the full control effect
Target sequence (Q9UBT6 whole entry, looked up): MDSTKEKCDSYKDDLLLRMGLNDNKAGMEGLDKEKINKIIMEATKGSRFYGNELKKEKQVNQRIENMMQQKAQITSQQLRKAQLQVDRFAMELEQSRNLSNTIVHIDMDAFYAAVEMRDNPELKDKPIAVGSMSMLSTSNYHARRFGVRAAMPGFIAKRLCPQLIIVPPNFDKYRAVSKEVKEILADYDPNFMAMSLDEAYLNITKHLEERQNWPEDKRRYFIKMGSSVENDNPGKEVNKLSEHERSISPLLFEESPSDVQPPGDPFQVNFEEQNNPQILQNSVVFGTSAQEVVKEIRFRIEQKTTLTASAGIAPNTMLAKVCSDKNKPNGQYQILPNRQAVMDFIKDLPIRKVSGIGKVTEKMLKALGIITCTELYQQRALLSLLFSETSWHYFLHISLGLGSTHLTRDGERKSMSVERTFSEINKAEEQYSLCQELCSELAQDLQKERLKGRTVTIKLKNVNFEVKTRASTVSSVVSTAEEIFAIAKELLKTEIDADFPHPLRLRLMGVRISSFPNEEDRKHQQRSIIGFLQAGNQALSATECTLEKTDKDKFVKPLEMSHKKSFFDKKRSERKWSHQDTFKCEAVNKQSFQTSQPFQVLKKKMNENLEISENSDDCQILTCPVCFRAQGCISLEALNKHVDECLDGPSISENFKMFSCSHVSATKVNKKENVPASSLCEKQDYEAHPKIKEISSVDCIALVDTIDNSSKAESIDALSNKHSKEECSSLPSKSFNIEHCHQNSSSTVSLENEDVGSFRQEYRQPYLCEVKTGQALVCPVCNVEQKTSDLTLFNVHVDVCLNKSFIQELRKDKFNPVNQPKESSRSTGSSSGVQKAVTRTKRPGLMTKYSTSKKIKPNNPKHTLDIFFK
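10 nM Pol kappa preincubated 15 min at room temperature with compounds, then reaction started with substrate at 50 nM final. Fluorescence read kinetically at 0 and 10 min; buffer-only wells served as negative control.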
Apoferritin bind = binds horse apoferritin like a general anesthetic. P02791. 350,000 compounds, 0.074% hits. Potency, µM (doses to about 77.5 µM), without a hit: at the top dose activity change, negative = displacement, hits mostly inhibitors. AID 485281. apoferritin/1-aminoanthracene competitive binding, fluorescence; further: potency means the concentration at half of the fitted maximal effect; on the % scale 0 is the no-effect control and ±100 the full control effect; nearly all actives have a fitted effect of over 20% in size
Target sequence (P02791 2-175 limits assumed): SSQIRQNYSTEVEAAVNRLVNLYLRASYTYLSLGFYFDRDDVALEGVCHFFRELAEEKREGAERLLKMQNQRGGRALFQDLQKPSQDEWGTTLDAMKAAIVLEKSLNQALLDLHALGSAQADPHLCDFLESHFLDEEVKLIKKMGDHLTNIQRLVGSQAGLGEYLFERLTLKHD
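Concentration-response curves derived by four-parameter Hill fitting of normalized fluorescence, where compounds displaced 1-AMA from 10 uM horse apoferritin following a brief 10 min room-temperature incubation; propofol titration acted as positive control.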
BLM helicase inh = inhibitors of human Bloom syndrome helicase BLM; P54132; recombinant BLM DNA unwinding, fluorescence dequenching; Potency, µM (doses to about 56.1 µM), for the others: at the highest dose activity change, negative = inhibition, most hits filed as inhibitors; 350,000 compounds, 0.2% hits; AID 2528;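 further: potency means the concentration at half of the fitted maximal effect; plate controls were vehicle for no effect and no enzyme for full effect; nearly all actives have a fitted effect of over 35% in size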
LDHA block = inhibitors of human lactate dehydrogenase A. P00338. purified LDHA, NADH/diaphorase-resazurin fluorescence; hits give low values. activity change, % (values are at about 110 or 230 µM). 480,000 compounds, 0.15% hits. AID 1347041; in the data active means activity change below about -30%; inconclusive means mostly about -25% to -30%;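 further: plate controls were DMSO wells for no effect and wells without enzyme for full effect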
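Human LDH5 at 2 nM final in Tris HCl pH 7.4 with 0.06 mM NADH and 0.2 mM pyruvate, reacted 5 minutes at room temperature. Remaining NADH coupled via diaphorase/resazurin; resorufin fluorescence read at 0 and 20 minutes, normalized to enzyme-free and DMSO wells.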
Pol iota inh = inhibitors of human DNA polymerase iota; Q9UNA4; Pol iota fluorescent replication assay, 10 min; Potency, µM (highest dose often 115 µM), for inactives: top-dose activity, negative = inhibition, hits mostly inhibitors; 390,000 compounds, 1% hits; AID 588590; further: potency means the concentration at half of the fitted maximal effect
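Pol iota at 10 nM preincubated 15 min with compounds at room temperature; reaction started with fluorescent substrate, 50 nM final. Fluorescence read kinetically at 0 and 10 min; buffer-only wells as negative control.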
POLB inh = blocks human DNA polymerase beta activity | P06746 | Pol beta primer extension/strand displacement, fluorescence kinetic | Potency, µM (doses to about 114 µM), for inactives: at the top dose activity change, negative = inhibition, hits mostly inhibitors | 340,000 compounds, 1.3% hits | AID 485314; further: potency means the concentration at half of the fitted maximal effect; on the % scale 0 is the no-effect control and ±100 the full control effect
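Homogeneous kinetic assay of primer extension and strand displacement by 10 nM Pol beta, preincubated 15 min at room temperature with compound before 50 nM substrate (final) was added. Read at 0 and 10 min; four-parameter Hill fit.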
* = called active by the depositor; ? = inconclusive; . = not tested or not shown; & = joins results of further samples; [ ] = another dose, or the depositor's remark. Unless noted, the call rests on the fitted dose curve; in most records, active means well fitted curve in the direction sought with a large enough effect; inconclusive means small, poorly fitted or top-dose-only effect, or another doubt; inactive means no such curve, though single readings can be large; an effect the other way counts as inactive or inconclusive.

1. O=C(Nc1ccc(C(F)(F)F)cc1)C1CCCCN1S(=O)(=O)c1ccccc1 (stereo unspecified)
2. Cc1nnc(SCC(=O)NNC(=O)c2ccccc2)n1Cc1ccccc1
3. CN(C)c1ncc2nc(-c3cc(F)cc(F)c3)c(=O)n(Cc3cccs3)c2n1
4. O=C(COC(=O)/C=C/c1ccc(Cl)cc1)Nc1cccc(S(=O)(=O)NC2=NCCCCC2)c1
5. C[C@]12CC[C@@H]3c4ccc(O)cc4CC[C@H]3[C@@H]1C[C@H](O)C2O (stereo partly specified)
6. Cc1noc(C)c1-c1nc(NC2CCNCC2)c2ccccc2n1

Compound	1	2	3	4	5	6
GRP78 ERSR act	1%	-5%	-3%	-5%	-2%	-2%
POLK inh	-18%	-9%	?	-9%	-7%[60.1 µM]	-3%[60.1 µM]
Apoferritin bind	.	.	.	.	.	.
BLM helicase inh	.	.	7%	.	7%	51%[activator]
LDHA block	-7	-2	.	-1	.	.
Pol iota inh	-7%	9%	.	9%	.	.
POLB inh	.	.	.	.	.	.

7. NC(Cc1ccc(O)c([N+](=O)[O-])c1)C(=O)O (stereo unspecified)
8. Cc1c(C(=O)OCC(=O)N(C)Cc2ccc(Cl)cc2)oc2ccccc12
9. CNc1nc(-c2c(C)noc2C)nc2ccccc12
10. COc1c(N2C[C@@H]3CCCN[C@H]3C2)c(F)cc2c(=O)c(C(=O)O)cn(C3CC3)c12
11. CCCCCCC1Cc2cc(OC)c(OC)cc2C(C(C(=O)OCC)C(=O)OCC)O1 (stereo unspecified)
12. COc1ccc(CNc2nc(-c3c(C)noc3C)nc3ccccc23)c(OC)c1

Compound	7	8	9	10	11	12
GRP78 ERSR act	-7%	0%	-1%	-5%&-5%	-4%&-3%	-2%
POLK inh	-14%	-11%	-4%[60.1 µM]	-3%[60.1 µM]	.	-6%[60.1 µM]
Apoferritin bind	8%	.	.	60%[activator]	5%&-2%[15.3 µM]	.
BLM helicase inh	4%	.	-2%	2%	-1%&5%[12.4 µM]	-10%
LDHA block	0	1	.	.	.	.
Pol iota inh	4%	?	.	.	.	.
POLB inh	1%	.	.	.	.	.

13. O=C(COc1cccc(F)c1)NNC(=O)Cc1ccc(S(=O)(=O)N2CCOCC2)s1
14. Cc1noc(C)c1CSc1ccccc1C(=O)N(C)CC(=O)Nc1cccc(F)c1
15. COc1ccccc1CNc1ncncc1-c1cccnc1
16. COc1cc([C@@H]2c3cc4c(cc3[C@@H](O[C@@H]3O[C@@H]5CO[C@@H](C)O[C@H]5[C@H](O)[C@H]3O)[C@H]3COC(=O)[C@H]23)OCO4)cc(OC)c1O
17. CCCCC1=CC2=C(OC(C)=O)C(=O)C(C)(OC(=O)c3ccc(Cl)nc3)C(=O)C2=CO1 (stereo unspecified)
18. O=S(=O)(c1ccccc1F)N1CCN(Cc2cc3c(cc2Br)OCCO3)CC1

Compound	13	14	15	16	17	18
GRP78 ERSR act	-1%	1%	-1%	-2%	.	-5%
POLK inh	-4%	4%	0%[60.1 µM]	15%	.	-10%
Apoferritin bind	.	.	.	.	.	.
BLM helicase inh	.	.	3%	.	5%	.
LDHA block	-4	-4	.	1	.	-3
Pol iota inh	-4%	42%[activator]	.	31%[activator]	.	-8%
POLB inh	.	.	.	.	.	.

19. COc1ccc(-c2ccc(NC(=O)c3ccc(Br)o3)cc2)nn1
20. Cc1noc(C)c1-c1nc(Nc2ccccc2)c2ccccc2n1
21. COc1cccc(NC(=O)c2ccc(NS(=O)(=O)c3cccs3)cc2)c1
22. COc1cc([C@@H]2c3cc4c(cc3C(OC3OC5COC(C)OC5C(O)C3O)C3COC(=O)[C@@H]32)OCO4)cc(OC)c1O (stereo partly specified)
23. CCOC(=O)c1ccccc1NC(=O)Cc1ccc(S(=O)(=O)N2CCCC2)s1
24. Cc1nnc(SCC(=O)NNC(=O)c2ccc(F)cc2)n1Cc1ccccc1

Compound	19	20	21	22	23	24
GRP78 ERSR act	-5%	-3%	0%	-3%	0%	-3%
POLK inh	-21%	0%[60.1 µM]	-2%	-12%[19.4 µM]	-10%	-20%
Apoferritin bind	.	.	.	.	.	.
BLM helicase inh	.	-2%	.	-4%	.	.
LDHA block	-8	.	-5	.	-6	-4
Pol iota inh	?	.	15%	.	26%	25%
POLB inh	.	.	.	.	.	.

25. CCCCCNC(=O)Cc1ccc(S(=O)(=O)N2CCOCC2)s1
26. N#Cc1ccc(OCC(=O)Nc2cccc(S(=O)(=O)NC3=NCCCCC3)c2)cc1
27. Cc1cc(C)c(S(=O)(=O)Nc2ccccc2C(F)(F)F)c(C)c1
28. Cc1cccc(NC(=O)CNC(=O)CSc2nc(N)cc(N)n2)c1C
29. CN(CC(=O)Nc1cccc(F)c1)C(=O)c1cccnc1Sc1ccccc1
30. C=CCn1c(SCC(=O)Nc2ccc3c(c2)OCCO3)nc2cc(C(=O)O)ccc2c1=O

Compound	25	26	27	28	29	30
GRP78 ERSR act	-2%	-2%	-3%	3%	-4%	-4%
POLK inh	-14%	-35%	-10%[19.4 µM]	-12%	2%	-6%
Apoferritin bind	.	.	.	.	.	.
BLM helicase inh	.	.	-10%	.	.	.
LDHA block	-4	-1	.	-13	-4	0
Pol iota inh	21%	79µM*	.	22%	12%	-12%
POLB inh	.	.	.	.	.	.

31. Nc1nc2c(c(=O)[nH]1)N=C(CNc1ccc(C(=O)NC(CCC(=O)O)C(=O)O)cc1)CN2 (stereo unspecified)
32. COCc1c(C(=O)NCCc2ccc(OC(F)F)cc2)oc2ccccc12
33. COc1cc([C@@H]2c3cc4c(cc3[C@@H](O[C@@H]3O[C@H]5CO[C@@H](C)O[C@@H]5[C@@H](O)[C@H]3O)[C@@H]3COC(=O)[C@@H]23)OCO4)cc(OC)c1O
34. OCC(O)C(O)C(O)C(O)C(O)CO (stereo unspecified)
35. C=CCn1c(SCC(=O)N(CC)C2CCS(=O)(=O)C2)nc2cc(C(=O)O)ccc2c1=O (stereo unspecified)
36. CC1CN(C(=O)COC(=O)Cc2c(F)cccc2Cl)CC(C)O1 (stereo unspecified)

Compound	31	32	33	34	35	36
GRP78 ERSR act	-3%	0%	-1%	-2%	-2%	-1%
POLK inh	-8%[19.4 µM]	-1%	-6%[19.4 µM]	?	-17%	-25%
Apoferritin bind	.	.	.	2%	.	.
BLM helicase inh	-13%	.	-14%	1%	.	.
LDHA block	.	-1	.	.	6	-3
Pol iota inh	.	-13%	.	.	-4%	19%
POLB inh	.	.	.	.	.	.

A different layout for some results above:
cpd	smiles	GRP78 ERSR act	POLK inh	Apoferritin bind	BLM helicase inh	LDHA block	Pol iota inh	POLB inh
27	Cc1cc(C)c(S(=O)(=O)Nc2ccccc2C(F)(F)F)c(C)c1	-3%	-10%[19.4 µM]	.	-10%	.	.	.
28	Cc1cccc(NC(=O)CNC(=O)CSc2nc(N)cc(N)n2)c1C	3%	-12%	.	.	-13	22%	.
29	CN(CC(=O)Nc1cccc(F)c1)C(=O)c1cccnc1Sc1ccccc1	-4%	2%	.	.	-4	12%	.
30	C=CCn1c(SCC(=O)Nc2ccc3c(c2)OCCO3)nc2cc(C(=O)O)ccc2c1=O	-4%	-6%	.	.	0	-12%	.
31	Nc1nc2c(c(=O)[nH]1)N=C(CNc1ccc(C(=O)NC(CCC(=O)O)C(=O)O)cc1)CN2 (stereo unspecified)	-3%	-8%[19.4 µM]	.	-13%	.	.	.
32	COCc1c(C(=O)NCCc2ccc(OC(F)F)cc2)oc2ccccc12	0%	-1%	.	.	-1	-13%	.
33	COc1cc([C@@H]2c3cc4c(cc3[C@@H](O[C@@H]3O[C@H]5CO[C@@H](C)O[C@@H]5[C@@H](O)[C@H]3O)[C@@H]3COC(=O)[C@@H]23)OCO4)cc(OC)c1O	-1%	-6%[19.4 µM]	.	-14%	.	.	.
34	OCC(O)C(O)C(O)C(O)C(O)CO (stereo unspecified)	-2%	?	2%	1%	.	.	.
35	C=CCn1c(SCC(=O)N(CC)C2CCS(=O)(=O)C2)nc2cc(C(=O)O)ccc2c1=O (stereo unspecified)	-2%	-17%	.	.	6	-4%	.

Carrying on.
37. Cc1cc(C)c(S(=O)(=O)Nc2cccc(C(F)(F)F)c2)c(C)c1
38. O=C(C1CCCCC1)N1CC(=O)N2CCc3ccccc3C2C1 (stereo unspecified)
39. O=C(COC(=O)c1ccccc1Cl)NCc1ccco1
40. CNS(=O)(=O)c1cccc(C(=O)OCC(=O)c2ccc[nH]2)c1
41. COCCNc1ncncc1-c1c(C)noc1C
42. COc1cc([C@@H]2c3cc4c(cc3[C@@H](OC3OC5COC(C)OC5C(O)C3O)[C@H]3COC(=O)[C@H]23)OCO4)cc(OC)c1O (stereo partly specified)

Compound	37	38	39	40	41	42
GRP78 ERSR act	-4%&-3%	-4%&-6%	2%	-1%	9%	-2%
POLK inh	?	-6%&-2%[60.1 µM]	-40%	-42%	-2%[60.1 µM]	5%[19.4 µM]
Apoferritin bind	.	-6%	.	.	.	-1%
BLM helicase inh	-17%	-10%&3%	.	.	-1%	.
LDHA block	2	.	1	2	.	.
Pol iota inh	20%	-5%[58.9 µM]	?	40µM*	.	.
POLB inh	.	19%	.	.	.	.

43. O=c1c(-c2ccc(F)cc2)nc2cnc(Oc3ccccc3)nc2n1Cc1cccs1
44. CC1(NC(=O)Cc2ccc(S(=O)(=O)N3CCOCC3)s2)CCS(=O)(=O)C1 (stereo unspecified)
45. O=C(Cc1ccc(S(=O)(=O)N2CCOCC2)s1)NNC(=O)c1ccccc1Cl
46. CC(=O)c1cccc([N+](=O)[O-])c1
47. OC[C@@H](O)[C@@H](O[C@H]1O[C@H](CO)[C@@H](O)[C@H](O)[C@H]1O)[C@H](O)[C@@H](O)CO
48. COc1ccc(Oc2ncc3nc(-c4ccc(F)cc4)c(=O)n(Cc4cccs4)c3n2)cc1

Compound	43	44	45	46	47	48
GRP78 ERSR act	-4%	0%	-1%	-2%	-2%	-7%
POLK inh	-4%[60.1 µM]	-9%	-9%	-3%	-21%	6%[60.1 µM]
Apoferritin bind	.	.	.	.	-2%	.
BLM helicase inh	-2%	.	.	.	-8%	-3%
LDHA block	.	-5	-3	-3	-6	.
Pol iota inh	.	-14%	0%	?	?	.
POLB inh	.	.	.	.	17%	.

49. COc1ccc(/C=N/NC(=O)c2ccc(NS(=O)(=O)c3cccs3)cc2)cc1
50. COc1ccc(CNc2ncncc2-c2ccccc2CN(C)C)c(OC)c1
51. COc1ccccc1CNc1ncncc1-c1cccc(NS(C)(=O)=O)c1
52. O=S(=O)(c1ccc(F)cc1)N1CCN(Cc2cc3c(cc2Br)OCCO3)CC1

Compound	49	50	51	52
GRP78 ERSR act	2%	0%	-4%	-5%
POLK inh	-15%	-4%[60.1 µM]	0%[60.1 µM]	9%
Apoferritin bind	.	-7%	.	.
BLM helicase inh	.	-8%	4%	.
LDHA block	-2	.	.	-2
Pol iota inh	7%	.	.	-17%
POLB inh	.	.	.	.

The list is partial (hit frequency here may not be typical).
